Bioassay records deposited in PubChem by National Center for Advancing Translational Sciences (NCATS).
PINK1 modulator – modulators of PINK1 expression | AID 624263 | Potency, µM (top dose mostly 76.6 µM), for inactives: at the highest dose activation (PINK1 increase), usual class: activators | PINK1 immunofluorescence, high-content cytometry, 24 h | hit rate 0.2% among 410,000; active = well fitted activation curve with a large enough effect; inconclusive = small, poorly fitted or top-dose-only effect; inactive = flat fitted curve, though single readings scatter; cell line not stated here;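 further: potency means the concentration at half of the fitted maximal effect; % of control where 0% means no effect; nearly all actives have a fitted effect of over 65% in size; a mitochondrial uncoupler was the plate control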
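PINK1 protein, normally rapidly degraded, was detected by immunofluorescence after 24 hour compound treatment of a stable cell line. Titration data (5 concentrations) came from laser-scanning cytometry, with CCCP-treated wells as controls.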
D2 agonist – activates the human D2 dopamine receptor; AID 624465; activation, % (test concentration not listed); hit rate 0.084% among 360,000; P14416; DiscoveRx PathHunter D2 beta-arrestin, luminescence, 90 min; 100% = 57 uM dopamine signal; in the data active = activation above about 40%; inconclusive = about 15% to 40%; inactive = below about 15%; further: compound concentration not given in the record; the text of the record calls up to 30% inactive
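Agonist mode: compounds alone added to overnight-plated D2 PathHunter cells for 90 min at 37 C, with 57 uM final dopamine (EC100) defining full response. Beta-arrestin recruitment detected by chemiluminescent reagent, read after 1 h at ambient temperature.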
CtBP-E1A inh – inhibitors of CtBP/E1A interaction. activity change, % (test concentration not listed). AlphaScreen GST-E1A/His-CtBP binding, 1536-well; active compounds read low; control for the full effect not named in the record. hit rate 0.49% among 340,000; in the data active means activity change below about -65%; inconclusive means about -30% to -65%; inactive means above about -30%; further: on the % scale 0 is the no-effect control and ±100 the full control effect
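AlphaScreen with 125 nM GST-E1A and 125 nM His-CtBP (5X stocks) in Tris pH 8.0, 300 mM NaCl, BSA, Tween 20, TCEP. Compounds preincubated 2 h at 37 deg C, then glutathione donor/nickel acceptor beads added for 1 h at 37 deg C in dark.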
Six1-Eya2 inh – blocks human Six1 binding to Eya2; AlphaScreen GST-Six1/His-Eya2 binding, biochemical; active compounds read low; control for the full effect not named in the record; Q15475+O00167; AID 651725; hit rate 0.56% among 360,000; activity change, % (no concentration beside the values); in the data active = activity change below about -65%; inconclusive = about -30% to -65%; inactive = above about -30%; further: on the % scale 0 is the no-effect control and ±100 the full control effect
Target sequence (O00167 whole entry, looked up): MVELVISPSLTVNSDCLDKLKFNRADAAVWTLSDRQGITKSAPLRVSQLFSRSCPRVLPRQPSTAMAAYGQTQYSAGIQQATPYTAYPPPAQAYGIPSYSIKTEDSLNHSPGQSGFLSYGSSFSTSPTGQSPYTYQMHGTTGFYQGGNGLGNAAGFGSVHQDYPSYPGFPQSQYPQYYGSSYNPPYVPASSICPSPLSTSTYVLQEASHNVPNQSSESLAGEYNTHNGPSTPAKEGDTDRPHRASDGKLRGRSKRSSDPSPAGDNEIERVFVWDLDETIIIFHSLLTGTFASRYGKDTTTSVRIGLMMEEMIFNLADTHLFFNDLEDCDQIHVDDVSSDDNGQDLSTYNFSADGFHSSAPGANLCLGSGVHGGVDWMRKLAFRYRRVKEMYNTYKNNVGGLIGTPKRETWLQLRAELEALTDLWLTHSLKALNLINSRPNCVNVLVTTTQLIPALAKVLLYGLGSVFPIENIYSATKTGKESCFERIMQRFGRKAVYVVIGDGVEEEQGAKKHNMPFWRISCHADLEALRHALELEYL
Target sequence (Q15475 whole entry, looked up): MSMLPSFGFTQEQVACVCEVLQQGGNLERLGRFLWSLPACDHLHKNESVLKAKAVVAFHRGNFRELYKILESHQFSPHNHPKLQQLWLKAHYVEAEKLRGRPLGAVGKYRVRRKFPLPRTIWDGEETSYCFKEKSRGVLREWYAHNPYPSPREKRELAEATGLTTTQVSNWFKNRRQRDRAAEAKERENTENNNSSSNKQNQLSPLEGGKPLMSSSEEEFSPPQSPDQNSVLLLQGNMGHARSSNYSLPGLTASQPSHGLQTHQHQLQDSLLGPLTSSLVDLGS
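GST-Six1 + His-Eya2 (5X stock: 250/500 nM); Tris pH 8.0, 300 mM NaCl, 0.05% BSA, 0.02% Tween 20; GSH donor/Ni acceptor beads; 1 h 37 °C dark; AlphaScreen readout.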
Sfp PPTase inh – blocks B. subtilis Sfp PPTase activity | Q9F4F7 | Biochemical Sfp PPTase activity, qHTS | Potency, µM, without a hit: max response, negative = inhibition, actives largely listed as inhibitors | hit rate 3.5% among 310,000; active means well fitted inhibition curve with a large enough effect; inconclusive means small, poorly fitted or top-dose-only effect, or another doubt; inactive means no such curve, though single readings can be large or run the other way;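 further: the enzyme is Sfp with the accession as filed and its product quenches rhodamine fluorescence; potency means the concentration at half of the fitted maximal effect; 0% = enzyme reaction without inhibitor and -100% = no enzyme wells; top concentration of the series not given in the record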
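Step 1, compound plus 15 nM Sfp-PPTase, 15 min, room temperature. Step 2, add rhodamine-CoA (5 uM) and BHQ-2-YbbR (12.5 uM). Step 3, read 525/598 nm fluorescence at 0 and 30 min.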
TRPV1 PAM – potentiators of human vanilloid receptor 1 (TRPV1). TRPV1-expressing cells, Fluo-8 calcium influx, capsaicin EC20 potentiation; host cell line not named in the record; control for the full effect not named in the record. potentiation, % at 8.33 µM. AID 540277. hit rate 0.02% among 320,000. Q8NER1; active means potentiation above 80%; inconclusive means 30% to 80%; inactive means below 30%; further: 0% is about no effect
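TRPV1-expressing cells were cultured overnight at 35.5C and loaded with Fluo-8 calcium dye for 40 to 90 min at room temperature. After a 10 s baseline, compound was added and calcium influx was read kinetically for 3 min (ex 480/em 520 nm).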
D2 potentiator – human D2 receptor positive allosteric modulation | P14416 | DiscoveRx D2 beta-arrestin cells, luminescence, 90 min; 100% = 57 uM dopamine signal | potentiation, % (no concentration beside the values) | hit rate 0.23% among 360,000 | AID 624464; active = potentiation of 50% or more; inconclusive = 30% to 50%; inactive = 30% or less;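 further: compound concentration not given in the record; tested on top of an EC20 dose of dopamine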
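PathHunter D2 cells, attached overnight at 37 deg C, received compound in DMSO plus dopamine at EC20 (50 nM final) for 90 min at 37 deg C. Beta-arrestin recruitment was read as luminescence after 1 h with detection reagent at ambient temperature.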
Numbers without * were called inactive; & = joins results of further samples; [ ] = another dose, or the depositor's remark. Hits appear at their usual frequency; overall some 3.7% were active at least once.

How did CCOC(=O)[C@H](CCc1ccccc1)N[C@@H](C)C(=O)N1CCC[C@@H]1C(=O)O do in these assays?
PINK1 modulator: -0.4%; D2 agonist: 2.5; CtBP-E1A inh: 12; Six1-Eya2 inh: -1; TRPV1 PAM: 3; D2 potentiator: -6

How did CCc1nnc(NC(=O)CSc2nnc(-c3c[nH]c4ccccc34)n2CC)s1 do in these assays?
PINK1 modulator: 6.1%[38.3 µM]; D2 agonist: -0.6; CtBP-E1A inh: -5; Six1-Eya2 inh: -2; Sfp PPTase inh: 5%; TRPV1 PAM: 2; D2 potentiator: 0

How did Cc1nc(-c2coc3cc(C)c(N=O)c(O)c3/c2=N\N)cs1 do in these assays?
PINK1 modulator: 2.8%; D2 agonist: -2.7; CtBP-E1A inh: 13; Six1-Eya2 inh: 2; Sfp PPTase inh: inconclusive; TRPV1 PAM: 8; D2 potentiator: -5

What do the screens show for `COc1ccccc1N1CCN(C2CCCN(Cc3cccc(O)c3)C2)CC1` (stereo not given)?
PINK1 modulator: -1.0%; D2 agonist: -2.0; CtBP-E1A inh: -14; Six1-Eya2 inh: -1; Sfp PPTase inh: 23%; TRPV1 PAM: 5; D2 potentiator: -2

How did Cc1ccc2[nH]ccc(=O)c2c1 do in these assays?
PINK1 modulator: 0.1%; D2 agonist: -1.0; CtBP-E1A inh: 0; Six1-Eya2 inh: 5; Sfp PPTase inh: 3%; TRPV1 PAM: 1; D2 potentiator: -5

What do the screens show for `CNc1nc2c3ccccc3n(C(C)=O)c2s1`?
PINK1 modulator: -0.3%; D2 agonist: -0.8; CtBP-E1A inh: inconclusive; Six1-Eya2 inh: -23; Sfp PPTase inh: -15%; TRPV1 PAM: -2; D2 potentiator: -12

How did Cc1cc2nnc(SCC(=O)NCc3cccs3)n2c2ccccc12 do in these assays?
D2 agonist: 0.6; CtBP-E1A inh: -5; Six1-Eya2 inh: 2; Sfp PPTase inh: 12%; TRPV1 PAM: 14; D2 potentiator: 0

How did Cc1ccccc1-c1nc(CS(=O)(=O)CC(=O)NCCCN2CC(C)CC(C)C2)c(C)o1 (stereo not given) do in these assays?
PINK1 modulator: 0.0%; D2 agonist: -1.0; CtBP-E1A inh: -4; Six1-Eya2 inh: -1; Sfp PPTase inh: 11%; TRPV1 PAM: 1; D2 potentiator: -30

How did COc1cccc(NC(=O)Cn2c(=O)n(-c3cc(OC)c(OC)c(OC)c3)c(=O)c3ccccc32)c1 do in these assays?
PINK1 modulator: 4.5%; D2 agonist: -2.8; CtBP-E1A inh: -8; Six1-Eya2 inh: 1; Sfp PPTase inh: 4%; TRPV1 PAM: 4; D2 potentiator: -3

Results for N#C/C(=N\Nc1ccc(Cl)cc1)C(=N)N1CCCCC1 ?
PINK1 modulator: 5.9%; D2 agonist: 0.6; CtBP-E1A inh: -2; Six1-Eya2 inh: -13; Sfp PPTase inh: 9%; D2 potentiator: -37

What do the screens show for `O=C(O)c1ccc2c(c1)CC(c1ccccc1)OC2=O` (stereo not given)?
PINK1 modulator: 0.1%; D2 agonist: -3.1; CtBP-E1A inh: 0; Six1-Eya2 inh: 4; Sfp PPTase inh: 13%; TRPV1 PAM: 14; D2 potentiator: 10

What do the screens show for `CCc1ccc(Nc2c([N+](=O)[O-])c(=O)oc3ccccc23)cc1`?
PINK1 modulator: 0.5%; D2 agonist: -4.9; CtBP-E1A inh: -28; Six1-Eya2 inh: -8; Sfp PPTase inh: 11%; TRPV1 PAM: -8; D2 potentiator: -26

Results for COc1cccc(Nc2nc(CN)cs2)n1 ?
PINK1 modulator: -1.2%; D2 agonist: -4.3; CtBP-E1A inh: inconclusive; Six1-Eya2 inh: -24; D2 potentiator: -14

Results for O=C(COC(=O)CNC(=O)c1ccccc1Cl)NC1CC1 ?
PINK1 modulator: 1.6%; D2 agonist: 7.5; CtBP-E1A inh: 5; Six1-Eya2 inh: 4; D2 potentiator: -3

How did CCOC(=O)C1=C(c2ccccc2)N(C)C(=O)NC1c1ccc(O)c(OC)c1 (stereo not given) do in these assays?
D2 agonist: -3.5; CtBP-E1A inh: -8; Six1-Eya2 inh: -6; Sfp PPTase inh: 6%; TRPV1 PAM: 2; D2 potentiator: 3

What do the screens show for `CCn1c(SCc2nc(CC(=O)Nc3ccccc3OC)no2)nnc1-c1cccs1`?
PINK1 modulator: -3.7%; D2 agonist: -0.2; CtBP-E1A inh: -15; Six1-Eya2 inh: -10; Sfp PPTase inh: 12%; TRPV1 PAM: 5; D2 potentiator: -3

Results for COc1ccc(N2CCN(S(=O)(=O)CCNC(=O)COc3ccccc3OC)CC2)cc1 ?
PINK1 modulator: 1.0%; D2 agonist: -0.1; CtBP-E1A inh: 1; Six1-Eya2 inh: -5; Sfp PPTase inh: 17%; TRPV1 PAM: 10; D2 potentiator: 1

How did CN(Cc1ccccc1)C(=O)C1CCCN(Cc2cccc(Cl)c2)C1 (stereo not given) do in these assays?
PINK1 modulator: 2.3%&-0.4%; D2 agonist: -4.3&-5.1; CtBP-E1A inh: 22&8; Six1-Eya2 inh: 8&-7; Sfp PPTase inh: -17%; TRPV1 PAM: -18; D2 potentiator: -10&-1

How did O=C1C=C(O)CC2(CCCCC2)C1 do in these assays?
PINK1 modulator: 0.0%; D2 agonist: -3.4; CtBP-E1A inh: 5; Six1-Eya2 inh: 2; D2 potentiator: 3

How did COc1ccc(/C=N/Nc2c(Cl)cc(Cl)cc2Cl)cc1CN1CCOCC1 do in these assays?
PINK1 modulator: -0.5%; D2 agonist: 1.5; CtBP-E1A inh: -8; Six1-Eya2 inh: 0; Sfp PPTase inh: 4%; TRPV1 PAM: -10; D2 potentiator: 2

What do the screens show for `COc1ccccc1C(=O)N1CCN=C1c1ccccc1`?
PINK1 modulator: -1.0%; D2 agonist: -0.9; CtBP-E1A inh: 9; Six1-Eya2 inh: 5; Sfp PPTase inh: 13%; TRPV1 PAM: -7; D2 potentiator: -14

How did COc1cc(C(=O)N2CCN(Cc3ccc4c(c3)OCO4)CC2)cc(OC)c1OC do in these assays?
PINK1 modulator: -1.6%; D2 agonist: 0.8; CtBP-E1A inh: 4; Six1-Eya2 inh: 0; Sfp PPTase inh: -25%; TRPV1 PAM: -14; D2 potentiator: -10

Results for CC(=O)OC1(C(C)=O)CCC2C3CC4OC45CC(O)CCC5(C)C3CCC21C (stereo not given) ?
PINK1 modulator: 2.5%; D2 agonist: 1.0; CtBP-E1A inh: 0; Six1-Eya2 inh: 6; D2 potentiator: -2

What do the screens show for `Cc1cc([N+](=O)[O-])nn1CCCC(=O)Nc1ccc(Cl)cc1Cl`?
PINK1 modulator: 0.7%; D2 agonist: -1.2; CtBP-E1A inh: 5; Six1-Eya2 inh: 6; Sfp PPTase inh: 5%; TRPV1 PAM: 6; D2 potentiator: -5

How did CC(CC(=O)O)CC(=O)Nc1cc([N+](=O)[O-])ccc1O (stereo not given) do in these assays?
PINK1 modulator: 1.1%; D2 agonist: -6.4; CtBP-E1A inh: -5; Six1-Eya2 inh: 13; Sfp PPTase inh: 19%; TRPV1 PAM: -4; D2 potentiator: -13

Results for CCN(Cc1nc2cc(Cl)ccc2c(=O)[nH]1)C(=O)c1ccc(C)c(NC(=O)c2ccco2)c1 ?
PINK1 modulator: 0.0%; D2 agonist: 9.0; CtBP-E1A inh: -2; Six1-Eya2 inh: 1; TRPV1 PAM: 4; D2 potentiator: -1

Results for Cc1nc(SCC(=O)c2c[nH]c3ccccc23)n[nH]1 ?
PINK1 modulator: -0.4%; D2 agonist: 0.0; CtBP-E1A inh: -4; Six1-Eya2 inh: -2; Sfp PPTase inh: 15%; TRPV1 PAM: -3; D2 potentiator: 3

What do the screens show for `O=C(COC(=O)/C=C/c1ccc(C(F)(F)F)cc1)NCC1CCCCC1`?
PINK1 modulator: 0.5%; D2 agonist: 6.9; CtBP-E1A inh: 0; Six1-Eya2 inh: -2; TRPV1 PAM: 8; D2 potentiator: 4

What do the screens show for `O=C(NCc1cccs1)c1ccc2nc([C@@H]3O[C@H](CO)[C@H](O)[C@H](O)[C@H]3O)[nH]c2c1`?
PINK1 modulator: -0.2%; D2 agonist: -2.2; CtBP-E1A inh: 0; Six1-Eya2 inh: -3; D2 potentiator: -7

What do the screens show for `COc1ccc(-c2csc3ncnc(Oc4cccc5ccc(C)nc45)c23)cc1`?
PINK1 modulator: 0.9%; D2 agonist: -2.4; CtBP-E1A inh: -9; Six1-Eya2 inh: -11; Sfp PPTase inh: 7%; TRPV1 PAM: -3; D2 potentiator: -13

Results for O=C(Cc1ccccc1Cl)N1CCOCC1 ?
PINK1 modulator: -0.3%; D2 agonist: -4.9; CtBP-E1A inh: -8; Six1-Eya2 inh: -5; Sfp PPTase inh: 17%; TRPV1 PAM: 0; D2 potentiator: 1

How did Cc1c(N2CCCC2)cc2c(c1NC(=O)c1ccccc1Cl)C(C)(C)CC2(C)C do in these assays?
PINK1 modulator: 8.8%; D2 agonist: -1.5; Six1-Eya2 inh: -16; Sfp PPTase inh: 18%; TRPV1 PAM: -3; D2 potentiator: -13

How did CCCS(=O)(=O)N1CCC(C(=O)NCCCOCC)CC1 do in these assays?
PINK1 modulator: -1.9%; D2 agonist: -1.0; CtBP-E1A inh: -1; Six1-Eya2 inh: 8; Sfp PPTase inh: 4%; TRPV1 PAM: 12; D2 potentiator: 12

What do the screens show for `Cc1ccc2nc(C3CCN(CC(=O)Nc4ccc5c(c4)OCCO5)CC3)[nH]c2c1`?
PINK1 modulator: 2.1%[38.3 µM]; D2 agonist: -1.3; CtBP-E1A inh: -20; Six1-Eya2 inh: -3; Sfp PPTase inh: 17%; TRPV1 PAM: 0; D2 potentiator: -15

An excerpt from above in order of molar mass, lowest first.
How did O=C1C=C(O)CC2(CCCCC2)C1 do in these assays?
PINK1 modulator: 0.0%; D2 agonist: -3.4; CtBP-E1A inh: 5; Six1-Eya2 inh: 2; D2 potentiator: 3

Results for O=C(Cc1ccccc1Cl)N1CCOCC1 ?
PINK1 modulator: -0.3%; D2 agonist: -4.9; CtBP-E1A inh: -8; Six1-Eya2 inh: -5; Sfp PPTase inh: 17%; TRPV1 PAM: 0; D2 potentiator: 1

What do the screens show for `CCc1ccc(Nc2c([N+](=O)[O-])c(=O)oc3ccccc23)cc1`?
PINK1 modulator: 0.5%; D2 agonist: -4.9; CtBP-E1A inh: -28; Six1-Eya2 inh: -8; Sfp PPTase inh: 11%; TRPV1 PAM: -8; D2 potentiator: -26
